# Menin-MLL FL inh = inhibitors of human menin-MLL interaction, wild-type MLL peptide | FP activity change, % at 61.4 µM | AID 1766 | Fluorescence polarization, fluorescein-MLL peptide displacement from menin | 290,000 tested, under 10 active; inconclusive = falling polarisation curve, or a change in total fluorescence; inactive = total fluorescence flat and polarisation flat or rising; no compound was filed as active; the % refers to the polarisation; negative = inhibition;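 further: % of control where 0% means no effect; inhibitors lower the polarisation; unlabelled MLL peptide was the positive control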
# gsp agonist = gsp mutant agonism; gsp mutant cells, cAMP HTRF, 30 min; control for the full effect not named in the record; Potency, µM (titrated, usually from 76.9 µM), inactives show top-dose activation (cAMP increase), actives largely listed as activators; 340,000 tested, 0.13% active; active = well fitted activation curve with a large enough effect; inconclusive = small, poorly fitted or top-dose-only effect, or another doubt; inactive = no such curve, though single readings can be large or run the other way; cell line not stated here;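 further: phosphodiesterase inhibitor Ro 20-1724 added with compounds to block cAMP breakdown; potency means the concentration at half of the fitted maximal effect; nearly all actives have a fitted effect of over 60% in size; about a fifth of the inactives were tested at one dose only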
#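 Cells stably selected in G418 were plated at 2000/well, grown 16-24 hr, then given compounds in DMSO with the PDE inhibitor […] (300 uM solution added) for 30 min at 37C; cAMP was read by HTRF.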
# TRPV1 potentiator = human TRPV1 potentiation; 320,000 tested, 0.02% active; Q8NER1; TRPV1-expressing cells, Fluo-8 calcium influx, capsaicin EC20 potentiation; host cell line not named in the record; control for the full effect not named in the record; AID 540277; potentiation, % at 8.33 µM; active means potentiation above 80%; inconclusive means 30% to 80%; inactive means below 30%; further: 0% is about no effect
#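 TRPV1-expressing cells were cultured overnight at 35.5C and loaded with Fluo-8 calcium dye for 40 to 90 min at room temperature. After a 10 s baseline, compound was added and calcium influx was read kinetically for 3 min (ex 480/em 520 nm).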
# Sfp PPTase inh = inhibitors of Bacillus subtilis Sfp phosphopantetheinyl transferase. Biochemical Sfp PPTase activity, qHTS. Potency, µM, inactives show max response, negative = inhibition, actives largely listed as inhibitors. 310,000 tested, 3.5% active; active means well fitted inhibition curve with a large enough effect; inconclusive means small, poorly fitted or top-dose-only effect, or another doubt; inactive means no such curve, though single readings can be large or run the other way;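 further: the enzyme is Sfp with the accession as filed and its product quenches rhodamine fluorescence; potency means the concentration at half of the fitted maximal effect; 0% = enzyme reaction without inhibitor and -100% = no enzyme wells; top concentration of the series not given in the record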
#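 After 15 min at room temperature with compound, 15 nM Sfp received 5 uM rhodamine-CoA plus 12.5 uM BHQ-2-ybbR (50 mM Hepes pH 7.6, 10 mM MgCl2). Rate came from the fluorescence difference over 30 min, ex 525/em 598 nm.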
# gsp antagonist = gsp mutant antagonism; gsp-mutant cells, cAMP HTRF, 30 min; control for the full effect not named in the record; 340,000 tested, 0.4% active; Potency, µM (titrated, usually from 76.9 µM), inactives show at the highest dose activity change, negative = inhibition, usual class: inhibitors; active = falling curve of any shape with a large fitted effect; inconclusive = falling curve, mostly with a smaller effect; inactive = flat or rising curve; cell line not stated here;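 further: intracellular cAMP measured with PDE inhibitor Ro 20-1724 present during compound exposure; potency means the concentration at half of the fitted maximal effect; on the % scale 0 is the no-effect control and ±100 the full control effect; nearly all actives have a fitted effect of over 65% in size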
#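 G418-selected cells were plated in DMEM/10% FBS for 16-24 h at 37C, then treated with compounds plus the PDE inhibitor […] (300 uM solution added) for 30 min at 37C. Intracellular cAMP was measured by HTRF after 30 min lysis at room temperature.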
# ClpP mod = qHTS Assay for Activators of ClpP | purified B. subtilis ClpP, FRET peptide cleavage, 20 min | Potency, µM (top dose mostly 57.5 µM), inactives show top-dose activity change, negative = active | 340,000 tested, 1.9% active; active = well fitted falling curve with a large enough effect; inconclusive = small, poorly fitted or top-dose-only effect; inactive = no such curve, though single readings can be large or run the other way; further: potency means the concentration at half of the fitted maximal effect; the source files actives as falling curves though it sought activators and does not explain the sign; nearly all actives have a fitted effect of over 65% in size; many hits overshoot -100%
# Target sequence (P80244 whole entry, looked up): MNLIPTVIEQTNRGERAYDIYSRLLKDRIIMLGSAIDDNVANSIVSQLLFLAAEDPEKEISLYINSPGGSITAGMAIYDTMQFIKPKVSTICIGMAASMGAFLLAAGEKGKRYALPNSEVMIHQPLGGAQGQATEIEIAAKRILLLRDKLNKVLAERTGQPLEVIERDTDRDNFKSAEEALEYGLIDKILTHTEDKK
#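 Buffer: 100 mM Tris/HCl pH8, 100 mM KCl, 0.05% low protease BSA, 2.5% glycerol, 0.01% Tween-20. ClpP 10 microg/mL final; 20 min RT; delta FRET normalized to ADEP and DMSO controls.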
# D2 potentiator = potentiates the human D2 dopamine receptor allosterically. AID 624464. 360,000 tested, 0.23% active. DiscoveRx D2 beta-arrestin cells, luminescence, 90 min; 100% = 57 uM dopamine signal. potentiation, % (concentration not given with the values); active = potentiation of 50% or more; inconclusive = 30% to 50%; inactive = 30% or less;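 further: compound concentration not given in the record; tested on top of an EC20 dose of dopamine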
# Target sequence (P14416 whole entry, looked up): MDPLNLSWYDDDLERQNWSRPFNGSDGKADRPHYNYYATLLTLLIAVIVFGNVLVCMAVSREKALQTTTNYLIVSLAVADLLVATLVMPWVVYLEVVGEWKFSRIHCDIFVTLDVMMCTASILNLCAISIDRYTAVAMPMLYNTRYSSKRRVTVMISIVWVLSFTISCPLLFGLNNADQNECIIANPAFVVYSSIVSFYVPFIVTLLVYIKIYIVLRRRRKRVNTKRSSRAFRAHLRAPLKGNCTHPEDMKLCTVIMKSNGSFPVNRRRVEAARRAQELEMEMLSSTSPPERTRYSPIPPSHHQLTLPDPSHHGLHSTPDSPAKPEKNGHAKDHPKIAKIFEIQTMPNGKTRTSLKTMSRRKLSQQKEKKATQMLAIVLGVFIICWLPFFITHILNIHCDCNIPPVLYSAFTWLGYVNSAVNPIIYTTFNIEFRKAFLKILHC
#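 PathHunter D2 cells, attached overnight at 37 deg C, received compound in DMSO plus dopamine at EC20 (50 nM final) for 90 min at 37 deg C. Beta-arrestin recruitment was read as luminescence after 1 h with detection reagent at ambient temperature.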
# Starred values were filed as active, the others as inactive; ? = inconclusive; . = not tested or not shown; & = joins results of further samples; [ ] = remark or other dose.
1) O=C(COC(=O)c1ccc[nH]c1=O)NCC1CCCO1 (stereo unspecified)
2) CCCCCN(C(=O)NC(=O)Nc1ccccc1C)S(C)(=O)=O
3) C[C@@H](C(=O)Nc1ccc2ccccc2c1)[C@H]1C[C@]1(C)[C@H](NC(=O)c1cccnc1)c1ccccc1
4) CCC(C(=O)NCCCN1CCN(C)CC1)n1nc(C)n2c(cc3occc32)c1=O (stereo unspecified)
5) CCCCOc1nc2c(c(=O)n(C)c(=O)n2C)n1C
6) CSc1nc(C(C)C)ccc1CNC(=O)CC(C)c1ccccc1 (stereo unspecified)
7) NC(=O)NC(CC(=O)N1CCc2ccccc2C1)c1ccc(Cl)cc1 (stereo unspecified)
8) CN1CCN(CCNC(=O)Cn2c(=O)c3cccn3c3ccc(F)cc32)CC1
Assay by compound	1	2	3	4	5	6	7	8
Menin-MLL FL inh	-1.6	-2.6	2.3&-0.4	2.3	-1.5	-4.5	-0.6	.
gsp agonist	17%	-24%	.	?	4%[15.4 µM]	16%	-7%[15.4 µM]	-4%
TRPV1 potentiator	21	0	7	-2	-5	-12	12	30
Sfp PPTase inh	14%	-4%	27%&7%	15%	18%	9%	5%	19%
gsp antagonist	7%	3%	-18%	19%	5%	-32%	14%	5%
ClpP mod	-8.5%	-0.4%	0.3%	-7.3%	.	.	.	-2.0%
D2 potentiator	-3	-10	-41	-9	-5	-2	-11	0

# Of the compounds above, 3 have four or more nitrogen atoms.
4) CCC(C(=O)NCCCN1CCN(C)CC1)n1nc(C)n2c(cc3occc32)c1=O (stereo unspecified)
5) CCCCOc1nc2c(c(=O)n(C)c(=O)n2C)n1C
8) CN1CCN(CCNC(=O)Cn2c(=O)c3cccn3c3ccc(F)cc32)CC1
Assay by compound	4	5	8
Menin-MLL FL inh	2.3	-1.5	.
gsp agonist	?	4%[15.4 µM]	-4%
TRPV1 potentiator	-2	-5	30
Sfp PPTase inh	15%	18%	19%
gsp antagonist	19%	5%	5%
ClpP mod	-7.3%	.	-2.0%
D2 potentiator	-9	-5	0

# Part of the list above with just Sfp PPTase inh, D2 potentiator and gsp agonist.
no.	mol	Sfp PPTase inh	D2 potentiator	gsp agonist
7	NC(=O)NC(CC(=O)N1CCc2ccccc2C1)c1ccc(Cl)cc1 (stereo unspecified)	5%	-11	-7%[15.4 µM]
5	CCCCOc1nc2c(c(=O)n(C)c(=O)n2C)n1C	18%	-5	4%[15.4 µM]
4	CCC(C(=O)NCCCN1CCN(C)CC1)n1nc(C)n2c(cc3occc32)c1=O (stereo unspecified)	15%	-9	?

# Additional entries follow.
9) Cc1nn(C)cc1CNC(=O)/C=C/c1cnn(C)c1
10) COCCCNc1nc2cc(OC)c(OC)cc2c2nc(-c3ccccc3)nn12
11) COc1ccc(N2CC(C(=O)Nc3nnc(SCC(=O)NC(C)(C)C)s3)CC2=O)cc1 (stereo unspecified)
12) COc1cc(OC)cc(C(=O)N[C@H](C(=O)NC23CC4CC(CC(C4)C2)C3)C(C)C)c1
13) Cc1nc(N2CCN(c3ccccn3)CC2)c2c(C)c(C(=O)Nc3ccc(F)cc3Cl)sc2n1
14) Cc1ccc(N=C2C(=O)Nc3ccc(C)c(Br)c32)cc1
15) CC1CN(c2nnc(NC(=O)c3ccccc3)s2)CC(C)O1 (stereo unspecified)
16) CCCCN(C(=O)CCNC(=O)NC12CC3CC(CC(C3)C1)C2)c1c(N)n(CCCC)c(=O)[nH]c1=O
Assay by compound	9	10	11	12	13	14	15	16
Menin-MLL FL inh	-5.0	1.5	-1.7	0.9	.	-6.4	0.8	.
gsp agonist	14%	-28%	?	5%	-5%	24%	-31%[inhibitor]	-60%[inhibitor]
TRPV1 potentiator	10	-13	2	5	19	-13	-1	-4
Sfp PPTase inh	18%	-14%	5%	20%	1%	-9%	-16%	.
gsp antagonist	9%	-19%	6%	1%	-17%	-2%	-12%	2%
ClpP mod	-1.2%	3.9%&-19%	-1.7%	0.0%	4.7%	1.2%	-2.8%	-2.0%
D2 potentiator	-5	-5	-11	-12	-12	-67	-11	-23

17) O=[N+]([O-])c1ccc(C=NN=Cc2ccc([N+](=O)[O-])cc2)cc1
18) COc1cccc(C(=O)N2CCN(S(C)(=O)=O)CC2)c1
19) CCN(C[C@H]1N[C@@](CC)(C(=O)OC)[C@H]2C(=O)N(Cc3ccccc3)C(=O)[C@@H]12)C(=O)c1ccccc1
20) CCCCn1c(N)c(N(CCC(C)C)C(=O)C2=NN(c3ccccc3)C(=O)CC2)c(=O)[nH]c1=O
21) O=C(COc1ccc(Cl)cc1)NC1CC1
22) CCC(CC)NC(=O)COC(=O)c1cccc(C)c1O
23) O=C1CCCC2=C1C(c1ccccc1)C1C(=O)c3ccccc3C1=N2 (stereo unspecified)
24) O=C(CSCc1ccc(Cl)cc1)Nc1ccc(O)cc1C(=O)O
Assay by compound	17	18	19	20	21	22	23	24
Menin-MLL FL inh	.	2.8	.	.	.	0.2	2.1	-1.7
gsp agonist	-54%[inhibitor]	-31%[inhibitor]	.	2%	-14%	?	-2%	4%[15.4 µM]
TRPV1 potentiator	.	2	.	-13	-11	?	-33	0
Sfp PPTase inh	.	12%	.	.	18%	24%	?	2%
gsp antagonist	4%	10%	-8%	6%	5%	5%	-30%	-2%
ClpP mod	.	-0.3%	-2.7%	-2.0%	0.8%	-0.5%	-3.9%	1.5%
D2 potentiator	-3	-8	22	-2	3	-18	-44	-1

25) COC(=O)c1ccccc1NC(=O)c1cc[n+](C)cc1
26) O=C(CCN1C(=O)C2C3C=CC(C3)C2C1=O)Nc1ccc(F)cc1 (stereo unspecified)
27) CC(C)=CC(=O)NCCc1ccccc1
28) COc1ccc(S(=O)(=O)N2CCC(c3cc(-c4cccc5ccccc45)n[nH]3)CC2)cc1
29) CCN1C(=NCC2CC2)N[C@@H](c2ccccc2)C(C(=O)OC)=C1C
30) CC(=O)NC(C)C12CC3CC(CC(CC(=O)O)(C3)C1)C2 (stereo unspecified)
31) COc1cc([C@@H]2CC=C(C(=O)O)[C@H](c3ccccc3F)N2S(=O)(=O)c2ccc(C)cc2)cc(OC)c1OC
32) CC(=O)c1cccc(NC(=O)c2cccc(S(=O)(=O)N3CCOCC3)c2)c1
Assay by compound	25	26	27	28	29	30	31	32
Menin-MLL FL inh	.	-1.0	2.8	1.4	-2.7	1.1	.	-21
gsp agonist	-17%[15.4 µM]	5%	?	-16%	10%	3%	.	-2%[15.4 µM]
TRPV1 potentiator	.	2	-7	4	13	11	16	-3
Sfp PPTase inh	.	7%	-2%	6%	5%	9%	.	13%
gsp antagonist	10%	14%	2%	-2%	-3%	4%	-7%	.
ClpP mod	.	-3.0%	-4.1%	-17%	1.3%	0.5%	0.6%	.
D2 potentiator	-3	22	-3	7	-10	-3	1	0

33) CCOC(=O)N1CCC(NC(=O)CS(=O)(=O)Cc2nc(-c3ccccc3Cl)oc2C)CC1
34) OCCCCc1nccc2c1[nH]c1ccccc12
35) COc1ccccc1CN(C(=O)CNC(=O)c1ccco1)C(C(=O)NCC1CCCO1)c1ccc(OC)c(OC)c1 (stereo unspecified)
36) CN(Cc1c(F)cccc1Cl)C(=O)COC(=O)Cn1cnc2ccccc2c1=O
37) CC(=O)c1nnn(-c2c(F)cccc2F)c1C
38) Cc1cc(C)cc(NC(=S)/C(=C(\[O-])c2ccc(Cl)s2)[n+]2cccc(C)c2)c1
39) Cc1ccc(NC=C(S(=O)(=O)c2ccccc2)S(=O)(=O)c2ccccc2)cc1
40) Cc1ccc(S(=O)(=O)NCCC(=O)NCc2ccc3c(c2)OCO3)cc1C
Assay by compound	33	34	35	36	37	38	39	40
Menin-MLL FL inh	-1.0	2.2	-14	.	3.8	1.8	0.4	5.4
gsp agonist	-6%	2%	-13%	-2%	?	-9%[15.4 µM]	29%	-15%
TRPV1 potentiator	1	-12	21	.	3	-6	10	14
Sfp PPTase inh	8%	21%	3%	.	13%	-20%	-7%	14%
gsp antagonist	-7%	-8%	14%	.	13%	-18%	-1%	5%
ClpP mod	-1.7%	4.9%	.	-0.5%	2.3%	-2.8%	1.2%	-0.6%
D2 potentiator	-1	-22	0	-8	-12	-23	-17	-9

41) CCOC(=O)c1c(C)nc2c(c(SC)nn2-c2ccccc2)c1N
42) Cn1cnc2c(=O)[nH]cc([N+](=O)[O-])c21
43) CCCCSc1nc2[nH]ncc2c(=O)[nH]1
44) Cc1cc2c(OCC(O)CNC(C)(C)C)cccc2[nH]1 (stereo unspecified)
45) C#CCNC(=O)C1=C[C@@H](C2CC2)C[C@@H](OCCCCO)O1
46) O=C(CNC(=O)c1sc2ccccc2c1Cl)NCc1cccc(C(F)(F)F)c1
47) Cc1ccc(NC(=O)CN(C)C(=O)CSc2ccc3c(c2)OCCO3)cc1
48) Clc1cccc(Cl)c1-c1nnc2cccc(Cl)n12
49) Cc1ccc(S(=O)(=O)N(C)c2cc(S(=O)(=O)N3CCC(C)CC3)c(C)cc2C)cc1
50) COCCn1c(SCC(=O)N(C)c2ccccc2)nc2c([nH]c3ccccc32)c1=O
51) O=C(Nc1ccc2c(c1)OCCO2)c1oc2ccccc2c1NC(=O)C1CC1
Assay by compound	41	42	43	44	45	46	47	48	49	50	51
Menin-MLL FL inh	0.9	2.0	5.2	1.9	5.8	.	.	5.7	2.4	-2.4	3.9
gsp agonist	-40%[inhibitor]	-10%	15%	35%	.	-13%[15.4 µM]	22%	-12%	-8%	19%	13%[15.4 µM]
TRPV1 potentiator	-12	0	-2	5	-21	-11	3	1	7	-18	-38
Sfp PPTase inh	1%	8%	11%	8%	3%	.	.	7%	0%	2%	-6%
gsp antagonist	18%	20%	8%	-5%	4%	-4%	-3%	8%	-14%	-10%	?
ClpP mod	25µM*	0.5%	-1.6%	0.7%	-18%	-13%	-0.2%	-2.0%	-4.7%	5.7%	0.2%
D2 potentiator	0	-9	-11	-1	-3	-10	-2	-9	-8	-6	-27

# Screening data as filed in PubChem.
